High-throughput results as filed in PubChem BioAssay.
HCMV NEC inh – disrupts HCMV UL50-UL53 complex binding. HTRF UL50-UL53 interaction, normalized percent inhibition. inhibition, % (concentration not given with the values). actives 0.15% (n = 190,000). AID 1918969;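 active means both replicates at 50% or more, plus weaker picks with an unusually low signal ratio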;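 further: stock transfer was 100 nL into about 20 µL; 0% = negative control wells and 100% = wells with untagged competitor protein; inactives centre near -12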
Sa growth inh – blocks Staphylococcus aureus growth; S. aureus RN4220 growth, OD600, 20 h, 42 °C; stronger effect = lower value; relative growth, % (test concentration not listed); actives 0.53% (n = 170,000); AID 720641;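 active means growth at 42 °C up to 50% and 20 or more points under that at 30 °C, or under 10% at both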;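 further: 300 nL library stock went into each well; scaled to the means of positive and negative controls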
GIV Gai3 FP – inhibitors of GIV GBA-motif binding to rat Galpha-i3 | P08753 | AID 1224905 | percent of control (FP), % (no concentration beside the values) | Galpha-i3/FITC-GIV peptide fluorescence polarization, 90 min; stronger effect = lower value; scaled: aluminum fluoride 0%, vehicle 100% | actives 0.42% (n = 210,000);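 active means replicate mean at 85% of control or lower, very high polarization wells dropped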;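 further: wells of about 15 µL received 100 nL stock; the first replicate is given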
Target sequence (P08753 whole entry, looked up): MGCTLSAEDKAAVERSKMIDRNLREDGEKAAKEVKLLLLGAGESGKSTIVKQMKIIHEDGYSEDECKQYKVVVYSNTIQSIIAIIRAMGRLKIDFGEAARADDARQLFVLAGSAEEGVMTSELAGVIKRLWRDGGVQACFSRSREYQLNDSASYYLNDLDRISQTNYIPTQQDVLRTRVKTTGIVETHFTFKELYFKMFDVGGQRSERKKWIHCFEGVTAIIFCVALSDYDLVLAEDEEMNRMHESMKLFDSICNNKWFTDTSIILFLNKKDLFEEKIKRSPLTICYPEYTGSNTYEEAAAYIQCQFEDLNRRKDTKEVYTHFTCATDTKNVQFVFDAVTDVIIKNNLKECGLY
Sa growth inh second temp – recorded beside Sa growth inh, whose call it bears; relative growth, %; measured here: growth at 30 °C;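 optical density after 20 h as mean of two plates; 100% = untreated growth and lower means inhibition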
* = called active by the depositor; nt = not tested or not shown; & = joins results of further samples.

SMILES | HCMV NEC inh | Sa growth inh | Sa growth inh second temp | GIV Gai3 FP
Cc1cc2c3c([nH]c2cc1S(=O)(=O)Nc1ccc(S(N)(=O)=O)cc1)CC(C)(C)CC3=O | -24 | nt | nt | 102
CCN1CCN(C(=O)c2ccc3c(c2)N(Cc2ccccc2)C(=O)c2ccccc2S3=O)CC1 (stereo not drawn) | 1 | 85 | 91 | 97
C/C=C/CC(=O)Nc1nc(CC(=O)OCC)cs1 | -8 | 111 | 96 | 104
O=C(Cn1cnc2c(oc3ccccc32)c1=O)N1CCCSC1=Nc1ccccc1Cl | -14 | 115 | 65 | nt
CCOc1ccc(C(=O)Nc2cccc(-c3ccc(N4CCOCC4)nn3)c2)cc1OCC | -26 | 84 | 82 | 110
O=C(Nc1ccccc1Cl)c1cc2c(-c3ccccc3)nn(-c3ccccc3)c2s1 | -43 | 90 | 83 | 105
CC(C(=O)NC(=O)NC1CCCCC1)N1CCN(S(=O)(=O)c2cc(Br)ccc2Br)CC1 (stereo not drawn) | -14 | 94 | 89 | nt
CC(=O)Nc1cc2ccccc2cc1C(=O)O | -36 | 122 | 84 | nt
CCOC(=O)c1c(NC(=O)c2sc(C)nc2C)sc2c1CCC(C)C2 (stereo not drawn) | -15 | nt | nt | 105
O=C(O)CN1N=C(c2ccc(Cl)cc2)CCC1=O | nt | 130 | 88 | 102
O=C1CCCc2cc(S(=O)(=O)N3CCC(C(=O)N4CCOCC4)CC3)ccc2N1 | -12 | 98 | 87 | 103
CCn1c(=O)cc(O)c2ccccc21 | -52 | 81 | 80 | 129
COc1ccc(C(=O)NCC(=O)N2CCc3ccccc3C2)cc1 | -17 | 101 | 85 | nt
COc1ccc(OC)c(NC(=O)CN(C)S(=O)(=O)c2ccc3[nH]c4c(c3c2)CCCC4)c1 | nt | 108 | 91 | 109
CCn1c(=O)n(CC)c2cc(S(=O)(=O)NC(C)C)ccc21 | -27 | 82 | 75 | 102
O=C(OCc1csc(Nc2ccccc2)n1)c1cc(NS(=O)(=O)c2cccs2)ccc1O | -36 | 98 | 94 | nt
COc1ccc(NC(=O)Nc2c(C)nc3nc[nH]n3c2=O)cc1OC | -7 | nt | nt | 105
COc1ccc(CCNC(=O)Cn2cc(C(=O)c3ccc(Cl)cc3)c(=O)c3ccc(C)nc32)cc1OC | nt | 106 | 106 | 102
CCc1nc(-n2nnc3cc(C)c(C)cc32)c2c3c(sc2n1)CCCC3 | nt | 112 | 87 | 107
CN(C)C(CN=C1NS(=O)(=O)c2ccccc21)c1ccccc1 (stereo not drawn) | -21 | 96 | 88 | nt
COc1ccccc1C(C)NC(=O)c1cccc(OC(F)F)c1 (stereo not drawn) | -30 | 108 | 83 | nt
Cc1cc(C)nc(N2CCN(c3ccccn3)CC2)n1 | -13 | 94 | 86 | 101
Cc1ccc(S(=O)(=O)N2CCN(Cc3cc(=O)n4ccccc4n3)CC2)c(C)c1 | -44 | 83 | 82 | nt
Cc1nc(CC(=O)Nc2ccc(C)c(C)c2)cs1 | -15&-22 | 103 | 90 | 108&120
CCc1cc(-c2[nH]ncc2-c2cscn2)c(O)cc1O | -12 | 99 | 75 | 95
CC(C1CC1)N(CC(F)(F)F)C(=O)c1cnc2ccccc2n1 (stereo not drawn) | -49 | 106 | 90 | nt
NNc1ncc(Cl)cc1Cl | 13 | 140 | 77 | 115
Cc1cc(C)nc(NS(=O)(=O)c2ccc(NC(=O)c3cccc(Br)c3)cc2)n1 | 15 | nt | nt | 105
CCOC(=O)/C(C#N)=C\c1ccc(N(C)C)cc1 | -9 | 97 | 102 | 204
CCCCCn1c(=O)[nH]c2cc(C(=O)NCCCN(CC)CC)ccc2c1=O | -23 | nt | nt | 101
CCOC(=O)Nc1nc2c(ccc3ccccc32)s1 | -14 | 92 | 91 | nt
COc1ccc(-c2cc(C(=O)Nc3c(C(=O)c4ccc(C)c(F)c4)oc4ccccc34)no2)cc1 | -19 | 96 | 86 | 101
CC(=O)N(CCc1ccccc1)CC1C(Oc2ccc(Cl)cc2)C(=O)N1c1ccccc1C (stereo not drawn) | nt | 116 | 83 | 104
COc1ccc(Cc2nc3ccccc3n2CC(O)COc2ccccc2)cc1 (stereo not drawn) | 3 | nt | nt | 105
COc1ccc2c(c1)C(=O)N(c1ccc(C)cc1C)C(=O)/C2=C/N1CCOCC1 | -91 | 109 | 75 | nt
O=C(NCc1cccc(Cl)c1)c1ccc(CS(=O)Cc2ccc(Cl)cc2)o1 (stereo not drawn) | -17 | 88 | 56 | 108
CCS(=O)(=O)c1c(Nc2ccc(F)c(Cl)c2)sc(C(=O)c2ccccc2)c1N | -16 | 98 | 58 | 104
CCOC(=O)C1CCN(c2nc(-c3ccc(OC)cc3)no2)CC1 | -2 | nt | nt | 104
Cc1cc(C)c2c(C)c(C(=O)NN)sc2n1 | -85 | 105 | 66 | 118
COc1ccccc1NC(=O)C1=C(C)Nc2nnnn2C1c1cc(Br)c(O)c(OC)c1 (stereo not drawn) | -9 | 116 | 90 | 108
COc1ccccc1C(=O)Nc1cccc(OCc2cc(=O)n3c(C)csc3n2)c1 | -18 | 94 | 73 | 102
CCOC(=O)Cc1ccc(NC(=O)N2CCc3c(c(C(=O)N4CCCCC4)nn3C)C2)cc1 | -24 | nt | nt | 107
Cc1ccnc2nc(NC(=O)c3cccnc3)nn12 | -17 | 79 | 82 | 100
O=C(Nc1ccc(Cl)cc1C(F)(F)F)c1cc(S(=O)(=O)NCc2ccccc2)ccc1F | nt | 119 | 107 | 108
CCOC(=O)c1ccc(N2C(=O)c3[nH]nc(-c4ccc(OCC)cc4)c3C2c2cccs2)cc1 (stereo not drawn) | -17 | 115 | 72 | 105
COc1cccc(C(=O)Nc2cnn(CCCC(=O)O)c2)c1 | -29 | 100 | 97 | 108
Cn1ccnc1C(=O)c1cccnc1 | 15 | 107 | 102 | nt
COC(=O)c1sc(C(C)(C)C)cc1CS(=O)(=O)c1cc(C)c(Cl)cc1C | -36 | 115 | 92 | 106
CC1(C(=O)Nc2ccc(NC(=O)C3(C)CCCC3)cc2)CCCC1 | 8 | 103 | 97 | nt
O=C(CSc1nc(-c2ccccc2)no1)N1CCN(c2ccccc2F)CC1 | nt | 88 | 72 | 105
CN(Cc1ccc(-c2ccc(Br)cc2)o1)C(=O)c1cccs1 | -41 | 62 | 55 | nt
COc1ccc(CNC(=O)Cn2nc(C)c3nn(-c4ccc(Cl)cc4)c(C)c3c2=O)cc1 | nt | 77 | 88 | 102
CCSc1cccc2cccnc12 | -13 | 100 | 78 | nt
Cc1cccc(C)c1NS(=O)(=O)c1ccc2c(c1)[C@H]1C=CC[C@H]1[C@@H](c1ccc(Cl)cc1)N2 | -11 | 118 | 86 | 141
Cc1ccc(CCNC(=O)c2c(C)oc3nc(C)nc(N4CCOCC4)c23)cc1 | nt | 115 | 99 | 108
COc1cc([N+](=O)[O-])ccc1N=Cc1nc(-c2ccccc2Br)oc1O | -18 | nt | nt | 99
CC(C)NC(=O)CCCCn1c(=O)c2ccccc2n(CC(=O)Nc2ccc3c(c2)OCO3)c1=O | -12 | nt | nt | 101
Cc1ccc(-c2ccc(CCC(=O)O)n2C(C)C)cc1 | 1 | 101 | 80 | 104
CCOc1ccc(NC(=O)CN2C(=O)C(c3ccccc3)=NC23CCC(C)CC3)cc1 (stereo not drawn) | -9 | 93 | 91 | 104
COc1ccc(NC(=O)CSc2nnc3[nH]c(=O)cc(N)n23)cc1 | -9 | 97 | 88 | 94

One compound at a time (already shown). Order of values: HCMV NEC inh	Sa growth inh	Sa growth inh second temp	GIV Gai3 FP
COc1cccc(C(=O)Nc2cnn(CCCC(=O)O)c2)c1 as listed: -29	100	97	108
COC(=O)c1sc(C(C)(C)C)cc1CS(=O)(=O)c1cc(C)c(Cl)cc1C as listed: -36	115	92	106

Other records follow:
SMILES | HCMV NEC inh | Sa growth inh | Sa growth inh second temp | GIV Gai3 FP
CCN(Cc1ccccc1)C(=O)c1ccc2c(Cl)c3c(nc2c1)CCCC3 | nt | 83 | 59 | 100
Cc1[nH]c2ccccc2c1C(=O)C(C)N1CCN(c2ncc(C(F)(F)F)cc2Cl)CC1 (stereo not drawn) | 16 | 106 | 37 | nt
COC(=O)c1c(N)c(C#N)c2n1CCCC2 | -24 | 85 | 88 | 102
C#CC(CC)(CC)NC(=O)c1ccccc1Br | -10 | 87 | 95 | nt
O=C(Cn1nnc(N2CCOCC2)n1)c1ccc(Cl)cc1 | -15 | 88 | 95 | 104
CCCCc1c(C)nc(SC)[nH]c1=O | -11 | 105 | 81 | 100
CC(=O)Nc1ccccc1-c1nnc(SC(C)C(=O)Nc2ccccc2C)[nH]c1=O (stereo not drawn) | -20 | nt | nt | 98
Cc1cccc(CNC(=O)Cn2nc(C)n3c(cc4cc(F)ccc43)c2=O)c1 | -29 | 99 | 95 | 96
c1ccc2c(c1)c1ccccc1n2CC1CS1 (stereo not drawn) | 4 | 97 | 103 | 100
CCN(CCOC)c1nsnc1OC(C)C | -18 | 90 | 90 | 104
COc1cccc(N2C(=O)CSC23C(=O)N(CC(=O)Nc2cc(C)ccc2C)c2ccccc23)c1 (stereo not drawn) | nt | 100 | 86 | 102
O=C(CN1C(=O)/C(=C\c2cccc(Cl)c2)Oc2ccccc21)NCC1COc2ccccc2O1 (stereo not drawn) | nt | 71 | 91 | 98
O=C(Nc1cccc(Br)c1)N1Cc2cccn2-c2ccccc21 | -22 | nt | nt | 97
CCOC(=O)c1nc2ccccc2s1 | nt | 88 | 99 | 94
CS(=O)(=O)Nc1ccc(C(=O)CSc2ccc3c(c2)OCCO3)cc1 | -18 | 80 | 87 | nt

The list goes on, overlapping the part above by 7 compounds.
SMILES | HCMV NEC inh | Sa growth inh | Sa growth inh second temp | GIV Gai3 FP
c1ccc2c(c1)c1ccccc1n2CC1CS1 (stereo not drawn) | 4 | 97 | 103 | 100
CCN(CCOC)c1nsnc1OC(C)C | -18 | 90 | 90 | 104
COc1cccc(N2C(=O)CSC23C(=O)N(CC(=O)Nc2cc(C)ccc2C)c2ccccc23)c1 (stereo not drawn) | nt | 100 | 86 | 102
O=C(CN1C(=O)/C(=C\c2cccc(Cl)c2)Oc2ccccc21)NCC1COc2ccccc2O1 (stereo not drawn) | nt | 71 | 91 | 98
O=C(Nc1cccc(Br)c1)N1Cc2cccn2-c2ccccc21 | -22 | nt | nt | 97
CCOC(=O)c1nc2ccccc2s1 | nt | 88 | 99 | 94
CS(=O)(=O)Nc1ccc(C(=O)CSc2ccc3c(c2)OCCO3)cc1 | -18 | 80 | 87 | nt
CC(=O)Nc1ccc(NS(=O)(=O)c2ccc3[nH]c4c(c3c2)CCCCC4)cc1 | nt | 90 | 82 | 103
Cc1ccc(-c2csc3ncnc(NCCO)c23)cc1 | -15 | 94 | 78 | nt
COc1ccc(C2Nc3ccccc3C(=O)N2Cc2ccco2)cc1COc1c(C)cccc1C (stereo not drawn) | -11 | nt | nt | 102
CC(=O)Nc1c(C)nn(-c2ccccc2)c1N1CCC(C(=O)NCCC2=CCCCC2)CC1 | -19 | nt | nt | 105
COC(=O)c1c(NC(=O)C(F)(F)F)sc2c1CCCC2 | 0 | 108 | 90 | nt
Cc1ccc(C2=NN(C(=O)CSc3nc4nc(C)cc(C)n4n3)C(c3ccco3)C2)cc1 (stereo not drawn) | -24 | 99 | 95 | nt
Cc1ccc(-c2cc3c(N4CCN(c5cc(C)ccc5C)CC4)nccn3n2)cc1 | 8&-29 | 94 | 86 | 109&104
CSc1sc(-c2ccon2)c(-c2ccco2)c1C#N | -45 | 108 | 80 | 103
CC(C)COc1ccc(C(=O)Nc2ncn[nH]2)cc1 | -33 | 108 | 102 | 107
CCCCN(C(=O)C1=CC=CN2CCS(=O)(=O)N=C12)c1ccccc1 | -11 | 107 | 91 | nt
COc1cc(/C=C2\C(=O)NC(=O)N(c3ccc(Cl)cc3)C2=O)cc(Br)c1O | -22 | nt | nt | 126
COc1ccc(-c2ccc(NS(=O)(=O)c3ccc(OC)c(OC)c3)cc2)nn1 | nt | 81 | 76 | 101
Cc1oc2c(c(C)cc3oc(=O)c(CC(=O)NCc4ccccc4)c(C)c32)c1C | -37 | 103 | 88 | 106
